From PubChem
YjeE inh: inhibitors of E. coli YjeE (TsaE). Potency, µM. purified YjeE, fluorescence polarisation of a bound ADP probe. 71,000 tested, 0.05% active; active = well fitted falling curve; inconclusive = weaker or top-dose-only fall, or a rising curve; inactive = flat or poorly fitted curve;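 further: top concentration of the series not given in the record; excess ADP was the control for the full effect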
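Fluorescence polarization of a BODIPY Texas Red–ADP probe (2 uM) bound to purified YjeE (10 uM) was read after 15 min room-temperature incubation with compounds. Loss of polarization marks inhibitors; ADP serves as titrated control.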
PK Bst: alters activity of Bacillus stearothermophilus pyruvate kinase; partly purified Bacillus stearothermophilus pyruvate kinase, luminescence ATP production; ribose 5-phosphate activator present at AC10; Potency, µM; 51,000 tested, 1.2% active; in the data active means potency below about 11 µM; inconclusive means mostly about 12 µM to 25 µM; inactive means weaker than that;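 the screen sought inhibitors and activators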;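 further: potency means the concentration at half of the fitted maximal effect; scaled between full activation by ribose 5 phosphate and full inhibition by luteolin; about four in five hits inhibit and the cells do not say which; series up to 57 µM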
Starred values were filed as active, the others as inactive; i = inactive; u = inconclusive; x = no result given. Some of the compounds tested, so the mix of outcomes need not match the whole.

SMILES	YjeE inh	PK Bst
CCCC(=O)N1CC2(C)CN(C(=O)CCC)CC(CCC)(C1)C2=O	i	>57
Cc1cccc(Nc2nn3c(=O)c4ccccc4nc3s2)c1	i	>57
O=C1CC(SC(=NCc2ccc3c(c2)OCO3)Nc2ccccc2)C(=O)N1 (centres undefined)	i	x
Cc1ccnc(NC(=O)COC(=O)C2COc3ccccc3O2)n1 (centres undefined)	i	>57
O=C(NCc1ccccc1)c1ccc(=O)[nH]n1	x	>26
OC(Cc1ccccc1)(Cc1ccccc1)c1ccccc1	i	x
CCC(c1nc2ccccc2c(=O)n1CCCn1ccnc1)N1C(=O)c2ccccc2C1=O (centres undefined)	i	i
CC(C)(C)C(=O)NC(c1ccc(Cl)cc1)[C@]1(C)C[C@H]1C1CCCCC1 (some centres undefined)	i	x
CCC(=O)N1CCc2cc(S(=O)(=O)CCC(=O)Nc3ccc(F)c(F)c3)ccc21	i	>57
Cc1cc(-c2nc3ccccc3o2)c2ccccc2n1	i	>57
Cc1ccc(C(=O)Cn2c(N3CCOCC3)nc3c2c(=O)n(C)c(=O)n3C)cc1	i	>57
COc1cccc(NC(=O)COc2ccccc2C(N)=O)c1	i	u
CCOC(=O)c1[nH]c2ccc(OC)cc2c1NC(=O)CN1CCC2(CC1)OCCO2	i	>57
COc1ccc(CC(C(=O)Nc2cccc(F)c2)c2nn[nH]n2)c(OC)c1 (centres undefined)	i	>57
Fc1ccc(-c2cc3nc(-c4ccccc4)cc(N4CCN(CCN5CCOCC5)CC4)n3n2)cc1	i	2.4*
O=C(CCNS(=O)(=O)c1ccc2c(c1)CCC(=O)N2)NCc1cccnc1	i	>57
COc1cccc(C2c3c(oc4ccccc4c3=O)C(=O)N2CCCN(C)C)c1OC (centres undefined)	i	>57
CCN(CC)S(=O)(=O)c1cccc(C(=O)Nc2ccc(C#N)cc2)c1	i	>57
Cn1c(Cn2c(=O)sc3ccccc32)nnc1SCC(=O)Nc1ccc2c(c1)OCO2	i	x
Nc1nnc(CC(=O)N2CCCCC2)s1	i	>57
CCC1Oc2ccc(C)cc2N(CC(=O)NCCN2C(C)CCCC2C)C1=O (centres undefined)	i	>57
CC(C)n1cc(/C=C(\C#N)S(=O)(=O)c2ccccc2)c2ccccc21	i	>57
CCOC(=O)c1[nH]c(C)c(C(=O)NCc2ccccn2)c1C	i	>57
Cc1ccc(C)c(NC(=O)c2nnn(Cc3ccccc3)c2N)c1	i	>57
COc1cccc(C2c3c(oc4ccccc4c3=O)C(=O)N2CCCN2CCOCC2)c1OC (centres undefined)	i	>57
CCCOc1ccc2[nH]cc(C(=O)O)c(=O)c2c1	i	>57
Cc1nn2c(CN(C(=O)c3ccco3)c3ccccc3)nnc2c2ccccc12	i	x
CCN1CCN(C(=O)c2nn(-c3ccc(C)cc3)c(=O)c3c2c2ccccc2n3C)CC1	i	>57
CN(Cc1ccco1)c1cc(-c2ccoc2)ncn1	i	x
COC(=O)c1cc2ccsc2n1Cc1nc(-c2ccc(OC)cc2)oc1C	i	>57
CCN(CC)C(=O)CN(c1cc(Cl)ccc1OC)S(C)(=O)=O	i	>57
O=C1c2ccccc2C(Nc2ccc(S(=O)(=O)N3CCOCC3)cc2)N1c1cccnc1 (centres undefined)	i	x
O=S(=O)(c1cccc(Cl)c1Cl)N1CCCCC1	i	i
CCCCSc1nnc([C@H](C)NC(=O)OC(C)(C)C)o1	i	>57
COc1cc(NC(=O)CN(c2ccc(C)cc2)S(=O)(=O)c2c(C)nn(C)c2C)cc(OC)c1	i	>57
COCc1nc2c([nH]1)c(=O)n(C)c(=O)n2CC(C)C	i	x
O=C1CS/C(=C\S(=O)(=O)c2ccc(Cl)cc2)N1	i	i
Cc1ccnc(NS(=O)(=O)c2cccc3nsnc23)c1	i	>57
Cc1ccc2cc(C)c(NCCO)nc2c1	i	x
Cc1ccn(CC(=O)O)c(=O)c1	i	>57
CSc1nnc2c(n1)OC(c1cn(C)c3ccccc13)N(C(C)=O)c1ccccc1-2 (centres undefined)	i	x
O=C(/N=C1\NC(=O)C(F)(C(F)(F)F)S1)NC1CCCCC1 (centres undefined)	i	>57
COC(=O)c1c(NC(=O)CSc2nnnn2-c2ccccc2)sc2c1CCC(C)C2 (centres undefined)	i	>57
CCC1(C)Cc2c(sc3nc4n(c(=O)c23)CCCS4)CO1 (centres undefined)	i	x
CCN(Cc1ccccc1)C(=O)c1ccccc1C	i	>57
CCOC(=O)c1c(C)n(C)c2ccc(O)c(CN3CCC(C)CC3)c12	i	>57
COc1ccc2c(C)cc(SCC#N)nc2c1	i	i
CCOc1ccc(-n2c(=O)[nH]cc(C(=O)N3CCc4ccccc43)c2=O)cc1	i	>57
COc1ccc(CN(Cc2cc3cc4c(cc3[nH]c2=O)OCO4)C(=O)NC2CCCCC2)cc1	i	>57
CCOC(=O)N1CCC(NC(=O)Cn2cc3c(n2)CCCC3)CC1	i	x
O=c1cc(CN2CCOCC2)c2c(ccc3ccccc32)o1	i	>11
CC(C)NC(=O)N1CC[C@@]2(CCCN(S(=O)(=O)c3ccccc3)C2)C1	i	x
CC1Cc2ccccc2N1C(=O)C1CCN(S(=O)(=O)c2cccs2)CC1 (centres undefined)	i	>57
CCn1nc(C)c(NC(=O)CCCSc2nc(-c3ccco3)cc(C(F)(F)F)n2)c1C	u	x
O=C1C(Cl)=C(NCC2CCCO2)C(=O)N1C1CCCCC1 (centres undefined)	i	x
Cc1cnc(CNc2cc(-c3ccc(C(=O)N(C)C)cc3)ncn2)cn1	i	x
Cn1nnnc1Sc1nc(-c2cccnc2)nc2ccccc12	i	>57
COCCN(C(=O)c1csnn1)C(C(=O)NC1CCCCC1)c1sccc1C (centres undefined)	i	>57
CCOC(=O)C1CCCN(C(=O)CCNS(=O)(=O)c2ccc3c(c2)CCC(=O)N3)C1 (centres undefined)	i	>57
COc1ccc(C(c2nnnn2Cc2ccccc2)N2CCN(C(=O)c3ccco3)CC2)cc1OC (centres undefined)	i	>57

For reference, some entries already given.
SMILES	YjeE inh	PK Bst
Cn1nnnc1Sc1nc(-c2cccnc2)nc2ccccc12	i	>57
COCCN(C(=O)c1csnn1)C(C(=O)NC1CCCCC1)c1sccc1C (centres undefined)	i	>57
CCOC(=O)C1CCCN(C(=O)CCNS(=O)(=O)c2ccc3c(c2)CCC(=O)N3)C1 (centres undefined)	i	>57

(next part)
SMILES	YjeE inh	PK Bst
O=S(=O)(Cc1ccccc1)N1CCN(Cc2ccc3c(c2)OCO3)CC1	i	x
COc1ccc(-c2nc3cnc(N4CCNCC4)nc3n(C)c2=O)cc1	i	x
NC(=O)CSc1nc(N)c2c3c(sc2n1)CCCCC3	x	11*
Cc1ccsc1C(=O)OCC(=O)NCc1ccc2c(c1)OCO2	i	>57
Cn1c(NCc2cc(Br)ccc2O)nc2ccccc21	i	x
Cc1c(C(=O)NCC2CCCO2)oc2ccc(S(=O)(=O)N3CCCC3)cc12 (centres undefined)	i	>57
CCNc1ncc2nc(-c3ccccc3)c(=O)n(CCc3ccccc3)c2n1	i	x
Cc1csc(NC(=O)Cc2nn(C)c(=O)c3ccccc23)n1	i	>57
COc1cccc(Nc2ncc3ncc(=O)n(CCc4ccccc4)c3n2)c1	i	x
CCOC(=O)COn1c(=O)c[n+]([O-])c2ccccc21	i	>57
CCOC(=O)N1CCN(S(=O)(=O)c2ccc(C)c(C)c2C)CC1	i	u
CCNc1nnc(-c2ccccc2OC)s1	i	x
C=C1CC[C@@H]2[C@](C)(CC[C@@H](O)[C@]2(C)CO)[C@@H]1C/C=C1/C(=O)OC[C@H]1O	i	x
C=CCSc1nc2c(c(=O)[nH]c(=O)n2C)n1C/C=C(/C)Cl	i	>57
Cc1ccc(NC(=O)Cn2c(C)cc(C)c(C#N)c2=O)c(Cl)c1	i	>57
O=C(O)CC(NC(=O)COc1ccc(Cl)cc1Cl)C(=O)O (centres undefined)	x	>26
CCn1cnc2c1c(=O)n(Cc1nnc3n1-c1ccccc1SC3)c(=O)n2Cc1ccccc1	i	>57
Cc1cccc(C)c1NC(=O)C[N+](C)(C)C	i	x
CC(=O)Nc1nc(-c2ccc(Br)s2)cs1	i	>57
CCOc1ccc2c(c1)sc(=NC(=O)C1CC1)n2C	i	i
CCOC(=O)N1CCC(NC(=O)C2CCCN(C(=O)N3CCOc4ccccc43)C2)CC1 (centres undefined)	i	>57
CCCS(=O)(=O)N1CCC(C(=O)NCCN(C)Cc2ccccc2)CC1	i	>57
Cc1cc(NC(=O)CSc2nnnn2C2CCCC2)no1	i	>57
CCC(NS(=O)(=O)c1c(C)[nH]c(=O)[nH]c1=O)C12CC3CC(CC(C3)C1)C2 (centres undefined)	i	>57
Cn1nnc2c(sc3nc(N4CCOCC4)c4c(c32)CCCC4)c1=O	x	>26
COC(=O)c1[nH]c2ccc(C)cc2c1NS(=O)(=O)c1ccc(F)c(C)c1	i	>57
NCCC[C@@H](CC(=O)N[C@@H]1CCCC[C@H]1C(=O)N[C@H](CC(=O)N[C@@H](CCC(=O)O)CC(=O)O)Cc1c[nH]c2ccccc12)NC(=O)C[C@H](Cc1c[nH]c2ccccc12)NC(=O)[C@@H]1CCCC[C@H]1N	i	x
CCOC(=O)n1c(=O)oc2cc(S(=O)(=O)N3CCOCC3)ccc21	i	>57
CS(=O)(=O)N(CC(=O)N1CCc2ccccc2C1)c1ccc2c(c1)OCO2	i	u
CC(=O)Nc1ccc(S(=O)(=O)c2c(N)n(CCN3CCOCC3)c3nc4ccccc4nc23)cc1	i	>57
CCOC(=O)c1cc2sccc2n1CC(=O)OC(C)C	i	>57
Cc1cc(C)nc(NC(=O)Nc2ccccc2C(F)(F)F)n1	i	>57
O=C(NCCCn1ccnc1)c1ccncc1	i	>57
COCC(=O)N1CCC2(CC1)CN(c1cccc(-c3ccccc3)c1)C2	i	x
CCC1(CC)NC(=O)N(CC(=O)Nc2sc3c(c2C(N)=O)CCC3)C1=O	i	>57
O=C(O)c1[nH]nc2c1COc1ccccc1-2	i	>57
CC(=O)C1=C(O)C(=O)N(CO)C1c1ccccc1F (centres undefined)	i	>57
CN(C)S(=O)(=O)N1CCN(CC(=O)Nc2cc(Cl)ccc2Cl)CC1	i	>57
Cn1ncc2c(Nc3ccccc3Br)ncnc21	x	>26
C1COC1	i	x
CCOC(=O)c1cnn(-c2nc(SC)nc3sc4c(c23)CCC4)c1N	i	>57
C=C1C(=O)O[C@@H]2[C@H]3O[C@]3(C)CCC=C(C)CC[C@@H]12	i	x
c1nc(NCCN2CCOCC2)c2cc(-c3ccoc3)ccc2n1	i	x
O=C(Cc1c(F)c(F)c(F)c(F)c1F)OC12CC3CC(C1)C(=O)C(C3)C2	i	>11
CCN(c1ccccc1)S(=O)(=O)c1ccc(C(=O)Nc2nnc(COC)o2)cc1	i	>57
CCSC(=N)N	i	x
COCCn1c(=O)c(CCc2ccccc2)nc2cnc(N3CCOCC3)nc21	i	x
CCN1CCN(c2ncc(C(=O)Nc3c(F)cc(F)cc3Br)c3ccccc23)CC1	i	>57

2 compounds drawn at random from the list so far, as already listed:
SMILES	YjeE inh	PK Bst
CC1Cc2ccccc2N1C(=O)C1CCN(S(=O)(=O)c2cccs2)CC1 (centres undefined)	i	>57
CCC1(C)Cc2c(sc3nc4n(c(=O)c23)CCCS4)CO1 (centres undefined)	i	x

Part of the list above, reformatted:
| canonical_smiles | YjeE inh | PK Bst |
| --- | --- | --- |
| CCOC(=O)c1cnn(-c2nc(SC)nc3sc4c(c23)CCC4)c1N | i | >57 |
| CCN(c1ccccc1)S(=O)(=O)c1ccc(C(=O)Nc2nnc(COC)o2)cc1 | i | >57 |
| O=C(Cc1c(F)c(F)c(F)c(F)c1F)OC12CC3CC(C1)C(=O)C(C3)C2 | i | >11 |
| C1COC1 | i | x |
| CC(=O)C1=C(O)C(=O)N(CO)C1c1ccccc1F (centres undefined) | i | >57 |

Next section:
SMILES	YjeE inh	PK Bst
CCN(CCCNC(=O)COc1cc(=O)n(C)c2ccccc12)c1ccccc1	i	x
COc1cccc(Oc2c(C)oc3c(CN4CCOCC4)c(O)ccc3c2=O)c1	i	>57
COc1ccc(S(=O)(=O)c2c(N)n(Cc3ccco3)c3nc4ccccc4nc23)cc1	i	>57
Cc1cc2c(SCc3ccccc3Cl)nc(N)nc2nc1C	i	x
Cc1ccc2c(COC(=O)c3n[nH]c4ccccc34)cc(=O)oc2c1	i	>57
CC(C)Cn1c(-c2cccs2)nc2nc3ccccc3nc21	i	>57
O=C(CSc1ncc(-c2ccc(F)cc2)[nH]1)N1CCCCC1	i	>57
CCN(CC)CCCN(Cc1cc2cc(OC)ccc2[nH]c1=O)C(=O)Nc1ccccc1	i	x
C=C(C)C1Cc2nc(N)nc(C)c2C1 (centres undefined)	i	>57
Cc1occc1-c1nnc(SCc2nc3ccccc3c(=O)n2CC#N)n1C	i	>57
Nn1c(SCC(=O)Nc2ccc(F)cc2)nnc1-c1ccccn1	i	>57
CC(C)(C)NCC(=O)c1c[nH]c2ccccc12	x	>26

PK Bst: entries above that show a hit.
SMILES	YjeE inh	PK Bst
Fc1ccc(-c2cc3nc(-c4ccccc4)cc(N4CCN(CCN5CCOCC5)CC4)n3n2)cc1	i	2.4*
NC(=O)CSc1nc(N)c2c3c(sc2n1)CCCCC3	x	11*

Later entries:
SMILES	YjeE inh	PK Bst
Cc1cc(C)n(-c2ncnc3c2oc2ccccc23)n1	i	>57
COc1ccc(OC)c(C(=O)COC(=O)c2cc(C)oc2C)c1	i	>57
COCCNC(=O)c1cc(Br)ccc1Cl	i	>57
NC(=O)C1(N2CCCCC2)CCN(CC(=O)Nc2ccccc2-c2ccccc2)CC1	i	>57
CCc1cc2c(=O)n(Cc3ccco3)c(SCc3c(C)noc3C)nc2s1	i	>57
COc1ccc(OCC(=O)Nc2cccc(OC)c2)cc1	i	>57
C=CCSc1nc2c(N)ncnc2n1[C@@H]1O[C@H](CO)[C@@H](O)[C@@H]1O	i	x
COc1cc(C2NC(=O)NC(C)=C2C(=O)OC2CCCC(C)C2)ccc1O (centres undefined)	i	x
